From PubChem
GLA inh pH 4.5 = inhibitors of human alpha-galactosidase A at pH 4.5. activity change, negative = inhibition, % at 105 µM. purified enzyme, 4-MU-alpha-Gal fluorescence, pH 4.5. 230,000 tested, under 10 active. AID 1467; inconclusive = small, poorly fitted or top-dose-only inhibition, or a rising curve; inactive = flat fitted curve, though single readings scatter; no compound was filed as active;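 further: 0% = full activity with enzyme and -100% = basal without enzyme; dose as in the result columns while the protocol names 77 µM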
Rango complex inh = inhibitors of Rango-importin beta complex formation; Q14974; Rango CFP/YFP FRET sensor + importin beta, 45 min; Potency, µM (doses to about 92.2 µM), inactives show at the highest dose inhibition of complex formation; 340,000 compounds, 0.031% hits; AID 540263; active = rising FRET ratio curve, often small or poorly fitted; inconclusive = mostly compound fluorescence or quenching in the first reads; inactive = flat curves in all reads;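 further: potency means the concentration at half of the fitted maximal effect; 0% = DMSO wells and 100% = buffer wells lacking importin beta; nearly all actives have a fitted effect of over 15% in size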
Target sequence (Q14974 whole entry, looked up): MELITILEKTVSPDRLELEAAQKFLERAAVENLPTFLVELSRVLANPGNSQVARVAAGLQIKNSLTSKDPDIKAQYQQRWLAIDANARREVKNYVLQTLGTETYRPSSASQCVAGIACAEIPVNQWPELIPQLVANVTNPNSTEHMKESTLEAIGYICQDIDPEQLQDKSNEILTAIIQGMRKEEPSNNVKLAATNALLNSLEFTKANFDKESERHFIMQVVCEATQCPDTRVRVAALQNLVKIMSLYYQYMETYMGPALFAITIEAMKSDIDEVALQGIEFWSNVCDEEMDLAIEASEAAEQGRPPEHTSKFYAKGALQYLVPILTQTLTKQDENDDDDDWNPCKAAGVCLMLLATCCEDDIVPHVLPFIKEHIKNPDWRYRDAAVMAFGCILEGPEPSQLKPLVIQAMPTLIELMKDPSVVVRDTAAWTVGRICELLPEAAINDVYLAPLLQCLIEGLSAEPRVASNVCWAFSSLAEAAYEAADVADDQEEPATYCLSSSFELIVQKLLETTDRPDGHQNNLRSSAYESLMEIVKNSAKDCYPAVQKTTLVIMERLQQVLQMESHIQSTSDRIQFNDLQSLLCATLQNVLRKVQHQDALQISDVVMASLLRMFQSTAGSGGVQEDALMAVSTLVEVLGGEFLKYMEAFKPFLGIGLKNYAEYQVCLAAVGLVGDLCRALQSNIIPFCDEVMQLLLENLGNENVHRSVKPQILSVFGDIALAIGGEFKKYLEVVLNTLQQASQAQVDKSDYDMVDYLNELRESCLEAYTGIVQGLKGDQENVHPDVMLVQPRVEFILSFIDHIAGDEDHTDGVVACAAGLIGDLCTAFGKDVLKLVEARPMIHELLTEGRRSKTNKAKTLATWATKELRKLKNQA
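FRET biosensor Rango (snurportin 1 IBB between N-terminal EYFP and C-terminal Cerulean), 50 nM in PBS/1 mM DTT/0.02% Tween-20/0.1% BSA, preincubated 5 min RT with compound; 0.125 microM importin beta added, 45 min RT, CFP/YFP FRET ratio read.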
Rango release inh = inhibitors of RanGTP-induced Rango-importin beta complex dissociation. Biochemical FRET Rango-importin beta, RanGTP-induced dissociation. Potency, µM (highest dose often 46.1 µM), for inactives: at the highest dose activity change, negative = inhibition. 340,000 compounds, 0.071% hits. AID 540253; active means falling FRET ratio curve, often poorly fitted, with flat reads before Ran was added; inconclusive means other falling curves, or compound fluorescence or quenching; inactive means flat or rising ratio curve;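 further: potency means the concentration at half of the fitted maximal effect; % of control where 0% means no effect; nearly all actives have a fitted effect of over 45% in size; -100% = wells without RanGTP and RCC1; the record marks most hits as doubtful in a second field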
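Quantitative HTS using a FRET biosensor: 0.1 uM Rango, 0.25 uM importin beta, 0.6 uM Ran, 2 mM GTP, 0.2 uM RCC1 final, PBS with DTT, Tween-20 and BSA. Post-read taken 45 min after Ran addition.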
miR-21 reporter = miR-21 reporter, rising signal | 340,000 tested, under 10 active | HeLa miR-21 FLuc reporter, luciferase, 48 h | Potency, µM (series often up to 38.3 µM), without a hit: at the highest dose reporter change, positive = more light; active = well fitted rising curve with a large enough effect; inconclusive = small, poorly fitted or top-dose-only effect; inactive = no such curve, though single readings can be large or run the other way;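 further: % of control where 0% means no effect; miR-21 action dims this reporter so a rising signal means less miR-21 action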
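HeLa cells stably expressing CMV-driven firefly luciferase with a downstream miR-21 binding sequence, endogenously expressing miR-21, were treated with titrations (up to about 40uM final) for 48 hours at 37 degree Celsius. Luciferase luminescence was read after lysis.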
An asterisk follows results filed as active; ? = inconclusive; nt = no result given; & = joins results of further samples.

#1 NNC(=O)CP(=O)(c1ccccc1)c1ccccc1
#2 COc1ccc(CN2CCN(C(c3ccc(F)cc3)c3ccc(F)cc3)CC2)c(OC)c1OC
#3 NC(N)=NC(=O)Cc1c(Cl)cccc1Cl
#4 O=C(Nc1ccc(C(=O)O)c(O)c1)c1ccccc1
#5 CCCCCCCC/C=C\CCCCCCCC(=O)O
#6 COC(c1ccccc1)(c1ccccc1)C(Oc1nc(C)cc(C)n1)C(=O)O (stereo not given)
assay / entry,1,2,3,4,5,6
GLA inh pH 4.5,nt,nt,-2&-7&0,-1,-9,nt
Rango complex inh,-2.5%,5.6%,0.1%,1.2%,-3.8%,-3.8%
Rango release inh,0%,13%,11%,3%,-5%,7%
miR-21 reporter,nt,nt,7%,-2%,3%,3%

#7 NC(=NCc1ccccc1)NC(=O)c1nc(Cl)c(N)nc1N
#8 O=C1Cc2c([nH]c3ccc([N+](=O)[O-])cc23)-c2ccccc2N1
#9 Cc1[nH]c2ccccc2c1/C=N/NC(N)=S
#10 CCCCCCCCCCCC(=O)O
#11 COc1ccc(/C=C/C(=O)O)cc1
#12 COc1ccccc1OCCNCC(O)COc1cccc2[nH]c3ccccc3c12 (stereo not given)
assay / entry,7,8,9,10,11,12
GLA inh pH 4.5,10&24&5&1,nt,-1,nt,-3,1&-24&1
Rango complex inh,8.6%,-1.6%,2.7%,1.2%,1.1%,nt
Rango release inh,1%,?,10%,4%,5%,nt
miR-21 reporter,nt,nt,-24%,nt,nt,16%&24%

#13 C=C1c2cccc(O)c2C(O)=C2C(=O)[C@]3(O)C(O)=C(C(N)=O)C(=O)[C@@H](N(C)C)[C@@H]3[C@@H](O)[C@H]12
#14 Cn1c(=O)c2c(ncn2CCO)n(C)c1=O
#15 CC(O)CC(=O)O (stereo not given)
#16 CCCOC(=O)c1ccc(O)cc1
#17 CC(=O)Nc1ccccc1
#18 CCCCC1C(=O)N(c2ccccc2)N(c2ccccc2)C1=O
assay / entry,13,14,15,16,17,18
GLA inh pH 4.5,-8,-13&-1&10,nt,nt,4,3&-1
Rango complex inh,?,0.1%,-2.2%,-0.4%,-0.2%,-1.8%
Rango release inh,-17%,-12%,10%,13%,-17%,13%
miR-21 reporter,1%,4%,nt,nt,nt,-7%

#19 O=c1cc(-c2ccc(O)cc2)oc2cc(O[C@@H]3O[C@H](CO)[C@@H](O)[C@H](O)[C@H]3O[C@@H]3OC[C@](O)(CO)[C@H]3O)cc(O)c12
#20 COc1ccc2nc(NC(=O)Nc3ccccc3)sc2c1
#21 Cc1cccc(C)c1NC(=O)C1CCCCN1C (stereo not given)
#22 COc1cc2nc(N3CCN(C(=O)[C@H]4COc5ccccc5O4)CC3)nc(N)c2cc1OC
#23 COc1ccc2ccc(=O)oc2c1
#24 COc1ccc(/C=N/NC(=O)c2ccncc2)cc1OC
assay / entry,19,20,21,22,23,24
GLA inh pH 4.5,6,1,-21,nt,0&-10,nt
Rango complex inh,0.5%,0.4%,10%,-0.2%,-1.3%,0.1%
Rango release inh,22%,0%,54%,-21%,-13%,7%
miR-21 reporter,-1%,-28%,-1%,-13%,-5%,3%

Quoted from above: entries 10 to 24
#10 CCCCCCCCCCCC(=O)O
#11 COc1ccc(/C=C/C(=O)O)cc1
#12 COc1ccccc1OCCNCC(O)COc1cccc2[nH]c3ccccc3c12 (stereo not given)
#13 C=C1c2cccc(O)c2C(O)=C2C(=O)[C@]3(O)C(O)=C(C(N)=O)C(=O)[C@@H](N(C)C)[C@@H]3[C@@H](O)[C@H]12
#14 Cn1c(=O)c2c(ncn2CCO)n(C)c1=O
#15 CC(O)CC(=O)O (stereo not given)
#16 CCCOC(=O)c1ccc(O)cc1
#17 CC(=O)Nc1ccccc1
assay / entry,10,11,12,13,14,15,16,17
GLA inh pH 4.5,nt,-3,1&-24&1,-8,-13&-1&10,nt,nt,4
Rango complex inh,1.2%,1.1%,nt,?,0.1%,-2.2%,-0.4%,-0.2%
Rango release inh,4%,5%,nt,-17%,-12%,10%,13%,-17%
miR-21 reporter,nt,nt,16%&24%,1%,4%,nt,nt,nt

#18 CCCCC1C(=O)N(c2ccccc2)N(c2ccccc2)C1=O
#19 O=c1cc(-c2ccc(O)cc2)oc2cc(O[C@@H]3O[C@H](CO)[C@@H](O)[C@H](O)[C@H]3O[C@@H]3OC[C@](O)(CO)[C@H]3O)cc(O)c12
#20 COc1ccc2nc(NC(=O)Nc3ccccc3)sc2c1
#21 Cc1cccc(C)c1NC(=O)C1CCCCN1C (stereo not given)
#22 COc1cc2nc(N3CCN(C(=O)[C@H]4COc5ccccc5O4)CC3)nc(N)c2cc1OC
#23 COc1ccc2ccc(=O)oc2c1
#24 COc1ccc(/C=N/NC(=O)c2ccncc2)cc1OC
assay / entry,18,19,20,21,22,23,24
GLA inh pH 4.5,3&-1,6,1,-21,nt,0&-10,nt
Rango complex inh,-1.8%,0.5%,0.4%,10%,-0.2%,-1.3%,0.1%
Rango release inh,13%,22%,0%,54%,-21%,-13%,7%
miR-21 reporter,-7%,-1%,-28%,-1%,-13%,-5%,3%

(more compounds)
#25 CNc1c2c(nn1C)CCCC2
#26 C[C@@H]1C[C@H]2[C@@H]3C[C@H](F)C4=CC(=O)C=C[C@]4(C)[C@@]3(F)[C@@H](O)C[C@]2(C)[C@@]1(O)C(=O)COC(=O)C(C)(C)C
#27 CN(C)CCOc1ccccc1Cc1ccccc1
#28 CCn1cc(C(=O)O)c(=O)c2cc(F)c(N3CCNCC3)nc21
#29 Nc1ncnc2nc[nH]c12
#30 Nc1c2c(nc3ccccc13)CCCC2O (stereo not given)
assay / entry,25,26,27,28,29,30
GLA inh pH 4.5,nt,-14,-4,-6&0,-5,3&4
Rango complex inh,?,-3.9%,-5.3%,2.6%,-2.5%&-1.7%&-0.1%,-2.5%
Rango release inh,3%&-14%,3%,-1%,0%,?,1%
miR-21 reporter,-1%&1%,-36%,-10%,nt,0%,nt

#31 COc1cc([C@H]2Oc3cc([C@H]4Oc5cc(O)cc(O)c5C(=O)[C@@H]4O)ccc3O[C@@H]2CO)ccc1O
#32 COC(=O)C1=CO[C@@H](OC2OC(CO)C(O)C(O)C2O)[C@@H]2[C@@H](C)[C@@H](O)C[C@H]12 (stereo not given in full)
#33 COc1c(O)cc2c(c1O)[C@@H]1OC(CO)C(O)C(O)[C@H]1OC2=O (stereo not given in full)
#34 CCCCOc1ccc(CC(=O)NO)cc1
#35 CCOC(=O)NNc1nncc2ccccc12
#36 COc1c(O)cc2c(c1O)[C@@H]1O[C@H](CO)[C@@H](O)[C@H](O)C1OC2=O (stereo not given in full)
assay / entry,31,32,33,34,35,36
GLA inh pH 4.5,nt,nt,nt,-7&3&-5,7&-3,nt
Rango complex inh,-3.0%,0.8%,-3.3%,-3.3%,7.2%,-1.1%
Rango release inh,-14%,-6%,0%,-6%,-2%,11%
miR-21 reporter,-9%,nt,nt,-4%,nt,nt

#37 O=C(O)/C=C/c1ccc(O)cc1
#38 O=C(O)C(O)C(O)C(O)C(O)C(=O)O (stereo not given) (tested in a mixture with another compound)
#39 O=C(O)CNC(=O)c1ccccc1
#40 CC[C@]1(O)C[C@@H]2CN(CCc3c([nH]c4ccccc34)[C@@](C(=O)OC)(c3cc4c(cc3OC)N(C)[C@H]3[C@@](O)(C(=O)OC)[C@H](OC(C)=O)[C@]5(CC)C=CCN6CC[C@]43[C@@H]65)C2)C1
#41 CC(C)(CO)C(O)C(=O)NCCCO (stereo not given)
#42 CC12CCC(=O)C=C1CCC1C2CCC2(C)C1CC[C@]2(O)C(=O)CO (stereo not given in full)
assay / entry,37,38,39,40,41,42
GLA inh pH 4.5,nt,nt,1,-8,nt,nt
Rango complex inh,-0.8%,-0.8%,-2.1%,1.7%,-0.4%,0.2%
Rango release inh,6%,17%,22%,-18%,-24%,14%
miR-21 reporter,nt,nt,nt,?,nt,-14%

A portion of the library, so the mix of outcomes need not match the whole.
